# Beta2AR agonist: agonists of human beta-2 adrenergic receptor inducing internalization; Am2.2-beta2AR cells, FAP receptor internalization, flow cytometry; reference of the scale not given here; 340,000 tested, 0.43% active; P07550; response, % (no concentration beside the values);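 active means response above a set limit, near 3 SD of response in nonfluorescent compounds, cut at about 42% in these data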;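 further: stock transfer was 100 nL into about 11 µL; a reference agonist was the positive control; negative values mostly stem from fluorescent compounds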
# Target sequence (P07550 whole entry, looked up): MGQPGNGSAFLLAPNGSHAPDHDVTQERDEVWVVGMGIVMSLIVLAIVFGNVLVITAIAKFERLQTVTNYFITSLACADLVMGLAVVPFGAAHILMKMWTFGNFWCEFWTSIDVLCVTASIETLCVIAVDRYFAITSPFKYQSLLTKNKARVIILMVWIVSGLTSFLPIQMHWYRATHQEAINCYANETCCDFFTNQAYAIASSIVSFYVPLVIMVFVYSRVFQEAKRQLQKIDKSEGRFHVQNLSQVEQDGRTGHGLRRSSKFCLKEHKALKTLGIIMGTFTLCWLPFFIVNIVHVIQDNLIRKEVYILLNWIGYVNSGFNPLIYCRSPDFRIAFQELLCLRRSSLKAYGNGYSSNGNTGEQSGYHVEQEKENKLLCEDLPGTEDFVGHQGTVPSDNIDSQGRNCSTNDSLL
# ALR inh: blocks human ALR sulfhydryl oxidase activity | P55789 | purified ALR, DTT oxidation, H2O2 HRP-luminol luminescence | inhibition, % (concentration not given with the values) | 290,000 tested, 3.8% active;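 active means mean and each replicate at 75% or more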;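 further: stock transfer was 7.5 nL into about 7.5 µL; 0% = neutral wells and 100% = wells with inactivated enzyme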
# Target sequence (P55789 whole entry, looked up): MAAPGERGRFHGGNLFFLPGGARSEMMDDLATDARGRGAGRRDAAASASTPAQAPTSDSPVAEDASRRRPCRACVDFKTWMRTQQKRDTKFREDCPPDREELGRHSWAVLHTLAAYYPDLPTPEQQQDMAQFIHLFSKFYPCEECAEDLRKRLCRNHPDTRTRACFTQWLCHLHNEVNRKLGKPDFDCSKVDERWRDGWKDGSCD
# LANA-H2A inh: blocks KSHV LANA binding to histone H2A/H2B; Q9QR71; cell-free LANA-H2A/H2B peptide, fluorescence polarization; inhibition, % (no concentration beside the values); 320,000 tested, 0.6% active; AID 2629; in the data active means inhibition mostly above about 10%, no sharp cut-off; inactive means mostly below about 6.7%;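 further: stock transfer was 7.5 nL into about 10 µL; 0% = median of vehicle wells and 100% = median of positive control wells; one replicate is shown; the record names a cut of 25% in any replicate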
# HNF4A DNA FP: change in binding of human HNF4 alpha to DNA; P41235; HNF4a-FITC DNA binding, fluorescence polarization, 1 h; activity change, % at 10 µM; 360,000 tested, 0.3% active; AID 1224865; in the data active means activity change above about 30%, passing the limit was not always enough;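 further: controls were the assay level and a saturating level of protein; the project sought stronger binding though the title names inhibitors; some compounds called inactive have numbers as strong as hits; positive values seem to mean higher polarization but the record does not say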
# FGF22 binding: binders of recombinant human FGF22 by thermal shift | 340,000 tested, 1.5% active | Q9HCT0 | calls only at 9.99 µM | SYPRO orange fluorescence; percent of sucrose octasulfate shift, DMSO zero;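 active means melting point raised past a set limit in the mean and every replicate; three in four hits are not shown here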
# UCH37 inh: blocks the human deubiquitinase UCH37. Q9Y5K5. inhibition, % (concentration not given with the values). purified proteasome/UCH37, Ub-AMC cleavage fluorescence. 330,000 tested, 0.33% active;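 active means mean of two replicates above 20%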;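 further: 0% = compound-free wells with enzyme and 100% = wells lacking proteasome; stock transfer was 100 nL into about 20 µL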
# Target sequence (Q9Y5K5 whole entry, looked up): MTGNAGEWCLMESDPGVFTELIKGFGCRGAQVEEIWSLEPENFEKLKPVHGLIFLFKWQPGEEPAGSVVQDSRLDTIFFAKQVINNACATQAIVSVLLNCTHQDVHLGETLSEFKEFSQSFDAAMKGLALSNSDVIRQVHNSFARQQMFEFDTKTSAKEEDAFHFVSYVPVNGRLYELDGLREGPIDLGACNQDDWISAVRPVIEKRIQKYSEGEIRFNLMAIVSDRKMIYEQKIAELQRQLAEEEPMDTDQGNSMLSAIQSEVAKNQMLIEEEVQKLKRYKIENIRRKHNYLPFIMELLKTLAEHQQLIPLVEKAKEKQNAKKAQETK
#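 Signal – fluorescence, ex 355 nm, em 460 nm · System – Proteasome-bound UCH37 · Input – 0.15 nM proteasome as dispensed · Timing – 30 min preincubation with enzyme, 25 min cleavage at room temperature · Read-out basis – percent inhibition of cleavage signal versus uninhibited and no-proteasome wells · Medium – Tris-HCl pH 7.4 with ATP-MgCl2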
# E coli growth: E. coli growth inhibition | OD600 absorbance (no concentration beside the values) | 330,000 tested, 0.21% active | Escherichia coli growth, OD600, 23 h; stronger effect = lower value;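 active means OD600 absorbance below the run mean of sample wells minus 3.6 SD, in any replicate, cut at about 0.56 in these data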;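 further: stock transfer was 300 nL into about 60 µL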
# * hit, by the source's call; i = inactive; . = no result given; + = active, no number.
SMILES,Beta2AR agonist,ALR inh,LANA-H2A inh,HNF4A DNA FP,FGF22 binding,UCH37 inh,E coli growth
O=C(NCc1ccccn1)C1CCCN(Cc2cnn(-c3ccccc3)c2-n2cccc2)C1 (stereo unspecified),-7,-2,4.4,-0.2,.,-1.4,0.67
O=C(COc1ccccc1)NC1CCCCCCC1,-7,-6,8.9*,6.3,i,2.5,0.63
COc1cccc(/C=N/n2c(=S)n(C)c3ccccc32)c1OC,9,-5,-2.4,1.9,.,.,.
Cn1c(=O)c2ncn(CC(=O)Nc3cccc(-c4nc5ccccc5s4)c3)c2n(C)c1=O,13,54,0.9,12,.,-12,0.65
Cc1ccc(S(=O)(=O)CC2CSc3nc4ccccc4n32)cc1 (stereo unspecified),9,-3,-0.9,4.4,i,3.7,0.65
Cc1cccc(N/C(=N\S(=O)(=O)c2ccccc2)C(F)(F)F)c1,8,-6,-16,-2.1,.,.,.
CSc1ncccc1C(=O)Nc1cccc(S(=O)(=O)N2CCOCC2)c1,8,-2,3.3,6.4,i,1.4,0.65
Cc1ccc(NC(=O)CN(C)CC(=O)Nc2ccc(N3CCOCC3)cc2)c(C)c1,1,37,-1.3,2.3,.,-4.5,0.71
Cn1c(CNC(=O)CCNC(=O)c2ccc(F)c(F)c2)cc(=O)n(C)c1=O,3,-2,-0.4,2.6,i,-0.9,0.65
CCOC(=O)c1ccccc1NC(=O)/C=C/c1cc(OC)c(OC)c(OC)c1,1,0,3.6,-1.8,.,-37,0.72
O=[N+]([O-])c1cc(Cl)ccc1N1CCN(c2ccccc2O)CC1,1,2,6.6,1.8,i,5.8,0.64
Cc1cc(Cl)ccc1OCC(=O)NCCOc1nc(N2CCOCC2)nc(N2CCOCC2)n1,-4,-3,-0.3,-0.6,.,5.6,0.69
CC(OC(=O)C1CCN(c2ccc(C(F)(F)F)cn2)CC1)C(=O)NC1CCCCC1C (stereo unspecified),7,.,-1.6,2.3,i,3.8,0.66
Nc1nc2c(ncn2C2C[C@H](O)[C@@H](CO)O2)c(=O)[nH]1 (stereo partly specified),-6,1,-3.5,-4.5,i,0.0,.
O=C(Cn1c(=O)oc2ccccc21)N(Cc1ccccc1)C1CCS(=O)(=O)C1 (stereo unspecified),2,-2,2.2,-1.2,.,1.3,0.74
CCCc1ccc(S(=O)(=O)N2CCN(Cc3ccco3)CC2)cc1,-2,-2,-4.5,0.3,i,1.4,0.66
COc1ccc(-c2noc(CCC(=O)N3CCN(c4ccccc4F)CC3)n2)cc1,-9,.,.,-0.8,i,1.9,0.69
O=C(O)COc1ccccc1/C=N/NC(=O)Cc1csc(Nc2cccc(C(F)(F)F)c2)n1,-2,29,0.2,-3.6,i,.,.
COc1ccc(NC(=O)C(CCS(C)(=O)=O)NC(C)=O)cc1 (stereo unspecified),0,.,3.6,1.4,.,5.5,0.75
COc1cc(C(=O)Oc2cc(N)n(S(=O)(=O)c3ccc(F)cc3)n2)cc(OC)c1OC,2,14,4.0,-0.1,i,2.6,0.67
O=C1NCCOC(=O)[C@@H](Cc2ccc(F)cc2)CC/C=C/C[C@H]1CC(=O)N(CCO)Cc1ccccc1,8,.,.,2.3,i,-2.5,0.73
CCOC(=O)N1CCC(N2C(=O)c3ccccc3C2Nc2c(C)cccc2C)CC1 (stereo unspecified),18,-5,-3.9,0.2,i,0.7,0.69
CC(NC(=O)CCc1nc2cc(S(=O)(=O)N3CCOCC3)ccc2n1C)c1ccc(S(N)(=O)=O)cc1 (stereo unspecified),3,-2,-2.2,-2.0,i,1.1,0.65
OCC1OC(n2cnc3c(SCc4ccccc4)ncnc32)C(O)C1O (stereo unspecified),-5,.,.,-0.6,i,.,.
O=C(CNc1ccccc1)N/N=C/c1ccc2c(c1)OCCO2,-2,-15,-2.1,2.4,.,.,.
CC(C)Oc1ccc(C(=O)Nc2cc(S(=O)(=O)N3CCOCC3)ccc2N2CCOCC2)cc1,-2,.,.,1.1,i,3.2,0.66
CCOC(=O)c1c(S(=O)(=O)Nc2ccccc2OCC)c(C)n(C)c1C,2,-4,-0.9,-19,i,-0.3,0.67
Cc1cc(C)c(C)c(S(=O)(=O)Nc2ccccc2C(=O)O)c1C,1,6,-0.7,-3.9,+,-0.9,0.65
Cc1ccc(NC(=O)COC(=O)CCC2CCCC2)c(Br)c1,-2,25,4.5,-1.2,i,1.0,0.69
O=C(Nc1ccccc1)Nc1ccccc1C(=O)NCc1ccccc1,-1,-4,-1.8,1.2,.,-7.2,0.73
O=C1CN(c2ccccc2)C(=O)N1,-3,.,8.5,4.3,i,0.2,0.7
CCCc1nccn1S(=O)(=O)c1cc(OC)ccc1OC,0,-1,-1.1,0.7,.,2.2,0.72
CN(C)c1ccc(-c2ccc3oc(-c4ccsc4)cc(=O)c3c2)cn1,6,-13,7.4,2.3,i,-0.1,0.65
CC(C)c1nc(C#N)c(NCCCn2ccnc2)o1,-6,-4,-2.0,-0.2,.,2.1,0.67
COc1ccccc1C(=O)NC(=O)COC(=O)C1CCC1,-5,2,-3.3,1.1,i,-1.4,0.7
CC(C)CNC(=O)C1Nc2ccccc2C2C=CCC12 (stereo unspecified),6,-23,8.5,-26,i,0.2,0.7
Cc1nn(-c2ccccc2)c(Cl)c1/C=N/NC(=O)c1nn(C)cc1[N+](=O)[O-],-1,-4,0.1,1.9,i,.,.
NC(=O)c1ccccc1N=Cc1cccnc1,-9,2,0.2,2.1,i,-220,0.67
O=C(CNC(=O)c1ccc(Cl)cc1Cl)OCc1nnc(-c2ccccc2Br)o1,-7,-1,0.1,3.4,i,.,.
COc1cccc(C(=O)CC(=O)C(=O)Nc2cc(OC)ccc2OC)c1,-1,-54,1.6,-0.6,i,4.3,0.7
Fc1ccc(NC(=S)N2CCCc3ccccc32)cc1,0,89*,-4.1,-2.5,.,-1.0,0.68
CCOC(=O)N1CCN(c2nc(-c3ccccc3)c3cc(C)ccc3n2)CC1,-4,-2,-0.9,-0.9,i,-245,0.71
NC(=O)c1ccc(NC(=O)CCc2nc3ccccc3s2)cc1,-44,-30,2.4,4.4,i,3.6,0.66
O=C(NCCCN1CCOCC1)c1c(O)c2cc(Br)cc(Br)c2[nH]c1=O,-2,13,-1.4,-3.0,.,6.7,0.72
CCOC(=O)c1sc2nc(SC)nc(-c3ccccc3)c2c1N,-7,-4,-0.3,-0.5,.,-11,0.71
COc1ccc(C(=O)/C=C/Nc2ccc(S(=O)(=O)Nc3onc(C)c3C)cc2)cc1,8,97*,1.4,1.1,.,.,.
Cc1onc(-c2ccccc2Cl)c1C(=O)OCc1cnc(Cl)s1,-6,-21,-2.0,-2.7,.,1.1,0.67
O=C(c1cc(F)ccc1F)N1CCC(N2CCC(C(=O)N3CCCC3)CC2)CC1,-6,-5,-0.5,3.8,i,3.2,0.68
S=C(NCc1ccco1)N1CCN(Cc2ccc(Cl)cc2Cl)CC1,3,60,4.9,0.1,.,2.8,0.67
Cc1ccc(C(C)C)cc1C(=O)CC1(O)C(=O)N(C)c2ccccc21 (stereo unspecified),-8,4,-7.3,-1.4,.,3.2,0.7
# Continued:
SMILES,Beta2AR agonist,ALR inh,LANA-H2A inh,HNF4A DNA FP,FGF22 binding,UCH37 inh,E coli growth
CC(C)(C)c1nc(NCCO)c2nnn(Cc3ccccc3)c2n1,5,-11,0.3,2.6,i,2.8,0.63
COc1ccccc1Oc1ccc2c(c1)C(=O)N(c1ccc(C)cc1)C2=O,-1,-5,3.4,-0.7,.,-1.5,0.75
CN(CC(=O)Nc1ccccc1Cl)C(=O)COC(=O)c1cnccn1,3,-3,-2.3,-2.0,i,2.2,0.71
N=C1C(c2ccccc2)=C(O)CN1c1cccc2ccccc12,-7,11,-4.5,2.1,.,1.6,0.71
CCN(CC)S(=O)(=O)c1ccc(N2CCOCC2)c(NC(=O)CCOc2ccccc2)c1,-7,-8,8.9,-0.8,i,1.1,0.68
O=C(O)CNC(=S)N(Cc1ccccc1F)C1CCCCC1,-1,-12,3.7,-3.0,i,2.1,0.67
CCC1CCCCN1C(=O)CSc1nc(N)cc(=O)[nH]1 (stereo unspecified),5,1,-2.5,-1.5,i,-0.4,0.7
CC(=O)c1c(C(C)=O)c(C)n(Cc2ccc(Cl)cc2)c1C,-2,-5,1.5,2.9,.,6.3,0.75
Cc1nn(-c2ccccc2)nc1CNC(=O)C1CCC1,5,-9,1.1,1.7,i,-1.7,0.68
COC(=O)c1cc(C(=O)NCC2CCCCC2)cc([N+](=O)[O-])c1,-17,-3,0.7,1.2,i,1.5,0.71
O=c1cc(N2CCN(c3ccccc3)CC2)[nH]c(=O)n1C1CCCCC1,-11,.,-5.6,-1.1,.,-1.6,0.72
COc1ccc(C2=CCN3CCCCC3C2)c(-c2ccc(OC)c(OC)c2)c1 (stereo unspecified),1,1,-1.8,14,i,2.1,0.67
CCOC(=O)Cc1csc(SCC(=O)/C(C#N)=C(\C)N)n1,1,-3,-3.8,-0.7,.,-0.1,0.66
C=CCSc1nnc(NC(=O)CN2C(=O)NC3(CCCC3)C2=O)s1,5,2,-1.7,6.9,i,1.1,0.69
CCOC(=O)CN1NC2(CCCCCC2)NC1=S,5,.,-0.9,7.3,i,6.3,0.65
Cc1onc(-c2c(Cl)cccc2Cl)c1-c1nnc(-c2ccc(Cl)cc2)o1,1,11,1.1,1.2,i,0.8,0.7
COc1ccccc1Nc1nc(NCC(C)C)nc(N)c1[N+](=O)[O-],6,.,-0.6,1.8,i,7.8,0.68
Cc1nnc(SCc2ccccc2)nc1/C=C/NOCc1ccc(Cl)cc1Cl,1,-6,-5.7,3.5,.,6.6,0.74
CC(C)(C)c1ccc(C(=O)N/N=C/c2ccc(OCCCF)cc2)cc1,12,-7,2.6,-0.2,i,.,.
COc1cc(NC(=S)N2CCN(S(=O)(=O)c3ccc(C)cc3)CC2)cc(OC)c1,8,-11,2.3,-1.4,i,0.2,0.74
CN(c1ccccc1)S(=O)(=O)c1ccc(C(=O)OCC(=O)NCc2ccco2)cc1,7,7,-3.3,25,.,0.4,0.81
CC(C)(C)OC(=O)N1CCC(CNC(=O)Nc2ccccc2)CC1,-15,.,-5.0,-3.2,i,2.1,0.61
Cc1cc(-c2n[nH]c(=S)n2/N=C/c2cc([N+](=O)[O-])ccc2Cl)n[nH]1,-10,.,.,0.9,i,.,.
CCSc1ccc2cc(OC)ccc2[n+]1CC,-4,-8,-4.8,-1.1,i,-50,0.7
Cc1cc(CN(C)C(=O)c2cc(COc3ccc(F)cc3Cl)on2)n[nH]1,-5,-22,1.6,0.4,i,1.3,0.64
COC(=O)CCCCC1SCC(NC(=O)OC)C1NC(=O)OC (stereo unspecified),9,-11,0.8,1.2,.,1.8,0.7
CCOC(=O)C1(CCOc2ccccc2)CCN(Cc2ccc(C#CCCO)cc2)CC1,-1,.,-1.0,-2.2,i,0.4,0.65
CC(C)C(NC(=O)c1c(F)cccc1F)C(=O)NCc1ccncc1 (stereo unspecified),5,.,.,-1.6,i,4.4,0.69
CCCn1nnnc1NCc1cccn1C,-1,3,-0.8,-2.8,.,-0.8,0.73

# Assay outcomes (PubChem BioAssay)

# A portion of the library, so the mix of outcomes need not match the whole.
